Source: PubChem
Env fusion inh – HIV envelope-mediated fusion inhibition; HeLa-JRFL Env/CEM21 cell fusion, luciferase; inhibition, % at 12.3 µM; AID 651610; 360,000 compounds, 1.1% hits;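 active = mean replicate inhibition score of at least 50 and every replicate individually at or above 50; inconclusive = only one of the two criteria met; inactive = mean below 50 and not all replicates reaching 50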;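 note: 0% = plate neutral controls and 100% = maraviroc near 300 nM; one replicate is shown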
MT1-MMP act inh – MT1-MMP (human) activation inhibition; P50281; HT1080 RFP-PRO-GFP cells, GFP/RFP ratio fluorescence, overnight; percent of plate control window, DMSO zero; GFP/RFP ratio change, % at 20 µM; 360,000 compounds, 0.061% hits;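 active = GFP/RFP ratio change of at least 30% with cell ATP level not reduced by more than half and red fluorescence within 50% of control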; note: strong numbers were not always called active
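Read-out: GFP/RFP fluorescence ratio; Test system: RFP-PRO-GFP reporter HT1080 cells; Compound dosing: single-point 20 µM compound, 1% DMSO; Times: overnight compound exposure at 37 °C.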
PABP FP inh – blocks human PABP binding to poly(A) RNA. P11940. fluorescence polarization. inhibition, % at 35 µM. 290,000 compounds, 1% hits;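 active = 50% or more with normal probe brightness, or confirmed in later tests; inconclusive = above 50% with abnormal brightness, or retests that disagree; inactive = below 50% or failed in later tests; about a fifth of its hits are not listed in these tables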;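 note: calls also rest on retests at 20 µM and on dose response follow-up; controls were probe without protein and protein plus probe with vehicle; some compounds called inactive have numbers as strong as hits; many hits fall short of the cut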
Target sequence (P11940 whole entry, looked up): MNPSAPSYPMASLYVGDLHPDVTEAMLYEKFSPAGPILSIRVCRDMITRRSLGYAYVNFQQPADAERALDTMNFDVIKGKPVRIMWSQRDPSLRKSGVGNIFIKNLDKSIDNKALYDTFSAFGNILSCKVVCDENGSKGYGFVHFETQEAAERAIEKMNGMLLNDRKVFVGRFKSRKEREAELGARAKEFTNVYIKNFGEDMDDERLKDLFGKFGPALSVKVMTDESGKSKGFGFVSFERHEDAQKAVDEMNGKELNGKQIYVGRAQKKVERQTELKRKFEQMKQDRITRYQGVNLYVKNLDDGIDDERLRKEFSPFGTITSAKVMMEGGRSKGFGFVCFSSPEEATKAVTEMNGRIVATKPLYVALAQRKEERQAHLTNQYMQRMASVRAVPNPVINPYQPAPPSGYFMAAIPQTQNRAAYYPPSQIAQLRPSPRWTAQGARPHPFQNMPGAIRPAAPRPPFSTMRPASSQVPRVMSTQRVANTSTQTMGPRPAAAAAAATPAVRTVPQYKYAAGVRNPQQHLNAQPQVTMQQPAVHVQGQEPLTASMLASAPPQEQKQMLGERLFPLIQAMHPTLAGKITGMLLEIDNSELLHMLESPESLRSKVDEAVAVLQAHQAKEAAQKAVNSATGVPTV
UUG fidelity – yeast start codon fidelity modulation. S. cerevisiae UUG-firefly luciferase reporter, luminescence/redox ratio. 350,000 compounds, 0.13% hits. activity score, % at 18.7 µM;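 active = replicate mean at a twofold rise or more, about +100% in these data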;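 note: firefly luciferase made from a UUG start codon reports start codon fidelity; reporter light over untreated wells divided by growth signal over untreated wells; some hits fall short of that in this replicate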
eIF4H FP inh – inhibitors of RNA binding by human eIF4H. eIF4H fluorescence polarization binding assay. inhibition, % at 35 µM. 290,000 compounds, 0.94% hits;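 active = 50% or more with normal probe brightness, or confirmed in later tests; inconclusive = above 50% with abnormal brightness, or retests that disagree; inactive = below 50% or failed in later tests; about a fifth of its hits are not listed in these tables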;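 note: calls also rest on retests at 20 µM and on dose response follow-up; 0% = protein and probe with vehicle and 100% = probe without protein; strong numbers were not always called active; many hits fall short of the cut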
CSC inhib – blocks cancer stem cells; cancer stem cell-like cells viability, luminescence; inhibition, % at 7.5 µM; 300,000 compounds, 1.1% hits; AID 2717;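 active = mean at 75% or more and at least half the replicates too; inconclusive = mean and replicates disagree; tested in HMLE shEcad cells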;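 note: 0% = median of negative and 100% = median of positive control wells; the first replicate is given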
Rce1 inh – inhibitors of yeast Ras-converting enzyme | AID 2563 | 290,000 compounds, 0.27% hits | yeast membranes, quenched prenylated peptide cleavage fluorescence | calls only | Q03530;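 active = fall in fluorescence gain of 50% or more versus controls, with final raw signal at or below 3038400; inconclusive = same 50% fall but final raw signal above 3038400; inactive = fall in fluorescence gain under 50%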;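 note: plate controls were neutral control wells for no effect and wells lacking membranes for full effect; tested at 10 µM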
eIF4H FP inh retest – further read-out of eIF4H FP inh, marked with its call; inhibition, %; compound at 20 µM; confirmation average;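 mean of two retest wells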
PABP FP inh retest – recorded beside PABP FP inh, whose call it bears; inhibition, %; compound at 20 µM; confirmation repeats;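 mean of two retest wells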
MT1-MMP act inh RFP – also measured in MT1-MMP act inh; calls as there; RFP signal change, %; measured here: RFP expression control read;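 0 = vehicle wells; hits needed this value within 50% of zero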
Active calls of the source: *; i = inactive; ? = inconclusive; . = not tested or not shown; & = joins results of further samples. Some of the compounds tested; count on the stated rates, not on these rows.

SMILES	Env fusion inh	MT1-MMP act inh	MT1-MMP act inh RFP	PABP FP inh	UUG fidelity	eIF4H FP inh	CSC inhib	Rce1 inh	others
COc1ccc(-c2nnn(CC(=O)N(Cc3cccs3)C(C)C(=O)NCCC(C)C)n2)cc1OC (configuration not stated)	.	-1	-5	-8	.	-11	5	i
CCOC(=O)c1cc(-c2ccccc2)nc2c1c(C)nn2-c1ccccn1	.	-4	-6	-3	-9	-11	-5	i
COc1cc(/C=N/Nc2nc(Nc3ccc(C)cc3)nc(-n3nc(C)cc3C)n2)cc(OC)c1OC	29	-8	-3	-6	-16	13	1	i
CCOc1ccc(-c2csc3nc[nH]c(=O)c23)cc1	-4	1	-5	3	-16	-12	13	i
Clc1nc(NCc2cccnc2)nc(N2CCOCC2)n1	0	7	4	3	-14	4	3	i
OC(COc1ccc(Cl)cc1Cl)Cn1ccnc1 (configuration not stated)	-30	-1	-3	-7	-2	-10	-13	i
CCOc1ccc(C2/C(=C(\O)c3c(C)[nH]c(C(=O)OC)c3C)C(=O)C(=O)N2CCN(C)C)cc1 (configuration not stated)	.	2	8	-3	-2	1	-5	i
COc1ccc(OC)c(NC(=O)CC(Cc2ccccc2OC)C(=O)O)c1 (configuration not stated)	-25	16	3	2	-12	-2	2	i
COc1ccc(NC(=O)c2sc3cc(C(F)(F)F)cnc3c2-c2cccs2)cc1	.	3	-2	1	-39	-4	-3	i
Cc1c(CN2CCC(C(=O)Nc3cccc(-c4cccc(Cl)c4)c3)CC2)cnn1C	9	1	3	-10	-11	-8	12	i
O=C(NC1=NCCS1)c1ccc2c(c1)C(=O)N(Cc1ccco1)C2=O	.	3	2	-10	-7	-6	-10	i
COCc1cc(C)nc(SCc2nc3ccccc3c(=O)[nH]2)c1C#N	-15	-10	-1	1	.	6	-2	i
COc1ccc(S(=O)(=O)N2CCOCC2)cc1NC(=O)CSc1nc(C)c(C)c(C)n1	-9	3	4	.	-3	.	-10	.
CCOC(=O)c1c(C)n(C)c2ccc(OCC(O)CN(CC)CC)cc12 (configuration not stated)	-4	5	4	3	-2	-3	-3	i
Nc1nonc1-n1nnc(C(=O)N/N=C/c2cccc(F)c2)c1CN1CCCC1	-16	0	4	.	-14	.	-8	i
Cc1cccc(OCC(=O)NC2CCCC2)c1	-11	-1	-1	10	-9	3	-15	i
Cc1cc(O)c(C(C)C)cc1N=Cc1ccccc1O	7	-7	3	1	.	-8	10	i
CCOC(=O)/C=C1\SCC(=O)N1CC(=O)Nc1cccc(F)c1	28	-11	2	-15	-7	4	11	i
Cc1cc(C)cc(NC(=O)c2cc(C)nc3ccccc23)c1	-30	4	5	-1	-15	-3	32	i
COc1ccc(C(=O)N/C(=C\c2cn(C)c3ccccc23)C(=O)OCCN(C)C)cc1	1	0	0	3	.	-3	-6	i
O=C(Nc1ccccc1)C(=O)c1c[nH]c2ccccc12	-95	2	0	-5	-8	-13	2	i
CCOc1ccc2nc(NC(=S)NCc3ccccc3)sc2c1	-64	5	-3	-2	-10	-15	.	i
CCC1(c2ccccc2)NC(=O)N(CC(=O)Nc2ccccc2C(=O)NC2CC2)C1=O (configuration not stated)	-27	4	4	.	.	.	-7	i
Cc1cc(NC(=O)CS(=O)(=O)c2cn(Cc3ccc(F)cc3)c3ccccc23)no1	79*	9	-24	-4	-8	-4	-3	i
NC[C@H](Cc1ccccc1)NCCc1cc(C(F)(F)F)cc(C(F)(F)F)c1	14	0	4	.	-15	.	17	.

Next part, overlapping the part above by 4 compounds.
SMILES	Env fusion inh	MT1-MMP act inh	MT1-MMP act inh RFP	PABP FP inh	UUG fidelity	eIF4H FP inh	CSC inhib	Rce1 inh	others
CCOc1ccc2nc(NC(=S)NCc3ccccc3)sc2c1	-64	5	-3	-2	-10	-15	.	i
CCC1(c2ccccc2)NC(=O)N(CC(=O)Nc2ccccc2C(=O)NC2CC2)C1=O (configuration not stated)	-27	4	4	.	.	.	-7	i
Cc1cc(NC(=O)CS(=O)(=O)c2cn(Cc3ccc(F)cc3)c3ccccc23)no1	79*	9	-24	-4	-8	-4	-3	i
NC[C@H](Cc1ccccc1)NCCc1cc(C(F)(F)F)cc(C(F)(F)F)c1	14	0	4	.	-15	.	17	.
COC(=O)C1=C(N)n2c(s/c(=C\c3cccnc3)c2=O)=C(C(=O)OC)C1c1cccnc1 (configuration not stated)	.	.	.	3	.	0	.	i
Clc1ccc(-n2ncc3c(NCc4ccco4)ncnc32)cc1	i	2	-2	4	-14	1	49	i
COc1ccc(C(=O)C[n+]2cc(-c3ccc(OC)cc3)n3c2CCCC3)cc1	-20&39	-6&-3	-20&-26	2&-7	.	13&-13	-6	i
C=C(C)CSc1nc(N)c2c3c(sc2n1)CCC3	.	2	-1	7	2	-2	0	i
COc1ccc(C(C(=O)NCC2CCCO2)N(C(=O)CNC(=O)c2ccco2)c2ccc(C)c(C)c2)cc1OC (configuration not stated)	6	-2	1	2	1	6	.	i
N#Cc1c(NC(=O)CSC2=NCCS2)sc2c1CCCC2	24	-7	-10	5	-10	-3	4	i
CCOc1ccc(CN2CCNC(=O)C2CC(=O)NCCCC2CCCC2)cc1 (configuration not stated)	4	-4	-1	4	-5	-10	3	i
CCN(CC)c1ncc(C)c(=O)[nH]1	.	2	3	-9	-6	4	5	i
O=C(CCN1C(=O)/C(=C\c2ccccc2)SC1=S)NNC(=O)c1cccnc1	5	4	0	-3	.	-8	-1	i
COc1ccc(NC(=O)Nc2c(C)n(C)n(-c3ccccc3)c2=O)cc1	-18	0	5	-13	4	-1	-16	i
CCOC(=O)c1cc(-c2ccc(F)cc2)n(CC(=O)NCc2cccnc2)c1C	-10	-1	4	7	.	-2	-13	i
CCCCCCCCCCCNC(=O)c1ccoc1C	17	-8	-2	4	5	-1	2	i
COc1ccc(CNC(=O)COC(=O)CCN2C(=O)C3CC=CCC3C2=O)cc1OC (configuration not stated)	16	-1	6	.	5	.	.	.
Cc1ccc(-c2ccnc3cc(C)nn23)cc1	-2	-4	-3	-9	-16	-9	-6	i
CCOC(=O)c1[nH]c(C)c(C(=O)N(C)C)c1C	-32	5	5	-4	-10	-4	-4	i
CCOc1ccc(-c2ccc(NS(=O)(=O)c3ccc([N+](=O)[O-])cc3)cc2)nn1	-6	6	2	.	-5	.	1	i
CCOC(=O)C1(CCOC)CCN(C(=O)c2ccc(CSC)o2)CC1	-33	0	0	-10	-11	-2	-1	i
O=C(Nc1cccc(F)c1)N1CCN(C(=O)c2ccco2)CC1	-10	-2	1	21	-13	0	-31	i
O=C1C=C(NCC2CCCO2)C2(CCCCC2)O1 (configuration not stated)	-33	1	2	-13	-32	-13	-3	i
COC(=O)c1c(C)cc(C)n2c1nc1ccccc12	.	4	3	0	-14	5	-6	.
CC1=C(C(=O)OCCc2ccccc2)C(c2ccsc2)NC(=O)N1C (configuration not stated)	-79	-3	-7	-6	.	4	-15	i
COc1ccc2ccccc2c1C(=O)/C=C\c1ccoc1	-4	-4	7	-7	.	87	-1	i	eIF4H FP inh retest=-1;PABP FP inh retest=11
Cc1ccc(S(=O)(=O)N(C)C)cc1NC(=O)c1ccccc1SCC(=O)N1CCCC1	-5	-3	2	.	0	.	.	.
O=C(NCc1ccccc1)C(c1ccccc1F)N(C(=O)c1csnn1)C1CCCC1 (configuration not stated)	17	-1	3	-6	13	-10	-11	i
Cc1ccc(C(=O)C2OC(=O)C(C)(C)C(=O)C2(C)C)cc1 (configuration not stated)	.	0	1	-7	.	-2	.	i

Next part
SMILES	Env fusion inh	MT1-MMP act inh	MT1-MMP act inh RFP	PABP FP inh	UUG fidelity	eIF4H FP inh	CSC inhib	Rce1 inh	others
CCC1C(=O)N=C(SCC(=O)Nc2ccc(S(N)(=O)=O)cc2)NC1=O (configuration not stated)	-4	-4	0	?	.	-10	-1	i
CCOc1ccc(NC(=S)N(CCOC)C(C)c2cccnc2)cc1 (configuration not stated)	0	0	3	10	.	10	8	i
CCOc1ccccc1/C=C/C(=O)c1ccc(Cl)cc1	12	-6	-8	1	.	-11	18	i
CSCC[C@H](NC(=O)[C@@H]1CSC2c3ccccc3C(=O)N21)C(=O)NCc1ccco1 (some centres not stated)	-1	0	0	7	-15	13	0	i
Cc1cc2c3c(ccc(C)c3n1)N=CN2c1ccccc1	.	-3	-2	-5	.	12	-10	i
COCCCNC(=O)/C(C#N)=C/c1cccc(NC(=O)c2ccccc2Cl)c1	-93	3	-18	-11	1	-3	-4	i
CCCn1c(=S)[nH]c2cc(C(=O)N3CCN(c4ccc(F)cc4)CC3)ccc2c1=O	-9	1	6	.	-16	.	.	.
C[C@H]1CN([C@@H](C)CO)C(=O)CCCn2cc(nn2)CO[C@@H]1CN(C)S(=O)(=O)c1ccc(-c2ccccc2)cc1	11	0	3	.	10&6&16	.	.	.
CCOC(=O)C1(Cc2cccc(OC)c2)CCN(Cc2ccccc2OC)CC1	-10	-3	1	-11	2	-3	8	i
CCc1ccc(NC(=O)CSc2nnc(Cn3c(=O)sc4ccccc43)n2C)cc1	14	-1	2	5	-14	-7	3	.
COCCNC(=O)c1ccc2c(c1)nc(C)n2-c1cccc(Cl)c1	-5	5	6	-3	-9	-6	-26	i
COc1cc(-c2nc(C(=O)NCC3CCCO3)cc3c2[nH]c2ccccc23)cc(OC)c1OC (configuration not stated)	.	-10	-11	-5	-10	12	9	i
COC(=O)c1c(C)[nH]c(C)c1C(=O)c1ccccc1Cc1ccccc1	-1	1	-8	.	6	.	-10	i
CCOC(=O)C1=NOC(CNC(=O)c2ccccc2Cl)C1 (configuration not stated)	9	1	3	10	.	3	-10	i
O=C(C(Sc1ccccc1)c1ccccc1)N1CCN(c2ccccc2)CC1 (configuration not stated)	20	-1	-5	-11	.	-15	19	i
CCOc1ccc(C(=O)C(C)OC(=O)c2nc(Cl)ccc2Cl)cc1 (configuration not stated)	5	-7	0	.	.	.	1	i
Cc1[nH]nc(N=Cc2c(O)n(C)c(=O)n(C)c2=O)c1-c1ccccc1	.	.	.	-6	.	-4	-7	i
O=C(Nc1ccc(OCc2ccccc2)cc1)Nc1nnc([C@H]2C[C@H](O)[C@@H](CO)O2)s1	-3	10	2	.	-7	.	.	.
CC(C)c1ccc(Nc2nc(Cl)nc(Cl)n2)cc1	-8	-3	1	2	-7	-1	-3	i
CN1CCN(C(=O)c2ccccc2N(Cc2ccccc2)S(=O)(=O)c2ccccc2)CC1	.	-19	-6	-16	-1	5	-9	i
Cc1ccc(NS(=O)(=O)c2cc(C(N)=O)ccc2C)cc1	.	2	1	6	-1	-7	-8	i
COc1cc(CCc2ccccc2)c(C(=O)O)c(O)c1C/C=C(/C)CCC=C(C)C	-3	-2	-15	.	-4	.	.	.
CC(C)OC(=O)c1cccc(C(=O)Oc2ccc(Br)cc2)n1	.	2	-2	1	-10	2	12	i
C#CCN(C(=O)CC1C(=O)NCCN1C/C=C/c1ccccc1)C1CCCCC1 (configuration not stated)	-10	-3	2	-7	.	-18	-14	i
O=C(NCc1cccnc1)c1ccc(-c2ccc(F)c(F)c2)c2ccoc12	-88	5	-25	.	-1	.	.	.
Cc1cc(C(=O)OC(C)C(=O)NC2CCCCC2C)c2ccccc2n1 (configuration not stated)	-4	0	3	.	-18	.	.	.
C=C(C)c1cccc(C(C)(C)NC(=O)Nn2cnnc2)c1	.	3	2	-5	11	-10	-9	i
Cc1nc2ccccc2nc1NS(=O)(=O)c1ccc(N)cc1	-1	4	1	11	-19	-4	-1	i
CCN(CC)/C(=N\S(=O)(=O)c1ccc(F)cc1)c1ccccc1	6	0	0	-2	-8	-7	-3	i
